Screens: PubChem, several laboratories
Mtb hypoxia rep – reduces hypoxia-regulated biosensor signal in M. tuberculosis. M. tuberculosis hypoxia-regulated fluorescent reporter, fluorescence. fluorescence inhibition, % (concentration not given with the values). 0.1% of 300,000 active. AID 1159583;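 active means 35 to 45% if threefold the growth effect, above 45% if 1.5-fold the growth effect; inactive means the rest, general growth blockers included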;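 further: wells of about 50 µL received 100 nL stock; 0% = vehicle wells and 100% = reference inhibitor wells; whole bacteria with a GFP reporter of the hypoxia response; strong numbers were not always called active; many hits fall short of the cut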
PrP 5UTR inh – inhibition of PrP 5' UTR reporter expression. cell-based PrP 5' UTR mRNA reporter, plate reader. inhibition, % (test concentration not listed). 0.35% of 340,000 active;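 active means every replicate at 50% or more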;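 further: 0 = median of the neutral control wells; tested in H4 reporter cells; numbers are from one replicate; inactives centre near -14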
Sa ugtP lethal – growth inhibition of S. aureus ugtP deletion strain. S. aureus RN4220 ugtP deletion, OD600 growth, 16 h; some inactives read as strong as hits. AID 1259309. growth inhibition, % (test concentration not listed). 0.54% of 330,000 active;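 active means z-score under -3 and OD600 up to 0.15 on both plates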;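 further: plate controls were untreated wells for no effect and antibiotic for full effect; wells of about 80 µL received 100 nL stock; the first replicate is given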
Sa RN4220 lethal – kills Staphylococcus aureus RN4220; S. aureus RN4220 growth, OD600, 16 h; inhibition, % (test concentration not listed); 0.33% of 330,000 active;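 active means z-score of -3 or lower and OD600 up to 0.18 on both plates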;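 further: plate controls were untreated cells for no effect and reference antibiotic for full effect; stock transfer was 100 nL into about 80 µL; one replicate is shown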
Bead autofluor – compound fluorescence in toxin protease inhibitor counterscreen. 3.1% of 360,000 active. AID 624483. fluorescence intensity (no concentration beside the values). compound autofluorescence counterscreen, microsphere flow cytometry; active compounds read high;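 active means at least 3 SD above the mean of all compounds, about 16000 in these data; inconclusive means too few beads counted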;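 further: 100 nL of 1 mM stock went into each well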
BJeLR lethal – BJeLR cell viability loss; BJeLR (HRASV12) viability, CellTiter-Glo ATP luminescence, 48 h; reference of the scale not given here; inhibition, % (test concentration not listed); 0.17% of 300,000 active; AID 1554;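 active means replicate mean above 50%; inconclusive means above 50% but judged a plate artefact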;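 further: 50 nL library stock added to about 25 µL; numbers are from one replicate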
Mtb hypoxia rep growth – second read-out of Mtb hypoxia rep, no call of its own (marks repeat the call); growth inhibition, %; measured here: M. tuberculosis growth (absorbance);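 0% = vehicle and 100% = reference antibiotic; read after six days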
Active calls of the source: *; ? = inconclusive; . = no result given.

molecule,Mtb hypoxia rep,Mtb hypoxia rep growth,PrP 5UTR inh,Sa ugtP lethal,Sa RN4220 lethal,Bead autofluor,BJeLR lethal
COc1ccc(NC(=O)Cn2c(=O)n(-c3ccc(CC(=O)NCc4ccco4)cc3)c(=O)c3ccccc32)cc1,2,3,4,5,2.8,4016,-10
CC(C)(CNC(=O)CCNC(=O)c1ccc(Br)cc1)N1CCOCC1,1,9,-15,0,3.1,5581,-1
O=C(N/N=C\c1ccc2c(c1)OCO2)c1ccco1,.,.,-69,.,.,2576,10
COc1ccc(/C(N)=N/OC(=O)C2CCCCC2)cc1OC,0,-1,-43,6,3.6,4010,5
CC1CC(=O)Nc2ccccc2N1C(=O)CN1CCN(c2ccccc2)CC1 (stereo not given),2,-7,1,4,-0.5,2135,4
CCn1nnnc1SCC(=O)c1ccc2c(c1)OCCO2,3,13,-56,-3,-3.9,3134,-2
COc1ccccc1C(=O)Nc1cccc(NC(=O)c2ccccc2OC)n1,4,6,-26,0,-3.3,3520,-4
CCN1C(=O)C2CCCCN2c2ccc(C(=O)NCCOC)cc21 (stereo not given),12,12,-89,-2,0.4,4001,7
Cc1ccc(NC(=O)CN(C)S(=O)(=O)c2ccc(Br)s2)cc1F,.,.,-26,.,.,2211,7
CCOC(=O)Nc1ccc2c(COC(=O)CNS(=O)(=O)c3ccc(NC(C)=O)cc3)cc(=O)oc2c1,13,5,-36,5,0.8,2534,2
CCn1cc2nc(SCC(=O)Nc3ccc(OC)cc3OC)n(Cc3ccc(OC)cc3)c(=O)c2n1,-9,9,-27,-1,-0.8,3671,19
CNC(=O)c1c(NC(=O)CS(=O)(=O)c2ccc(F)cc2)sc(C)c1C,10,2,-4,3,2.8,5292,3
CC[C@@]1(C(=O)OC)N[C@H](CN(C)C(=O)Nc2ccc(C(F)(F)F)cc2)[C@@H]2C(=O)N(C)C(=O)[C@@H]21,0,11,7,3,2.3,3632,.
Cc1cc(Br)ccc1SCC(=O)OCC(=O)NCc1ccc2c(c1)OCO2,5,6,-23,9,-1.5,2189,-5
COc1cc(C(=O)COC(=O)c2cnc(C)cn2)ccc1OC(F)F,-7,-10,-9,-1,1.6,5431,-1

Eleven compounds out of the list, arranged by count of non-hydrogen atoms, ascending.
molecule,Mtb hypoxia rep,Mtb hypoxia rep growth,PrP 5UTR inh,Sa ugtP lethal,Sa RN4220 lethal,Bead autofluor,BJeLR lethal
O=C(N/N=C\c1ccc2c(c1)OCO2)c1ccco1,.,.,-69,.,.,2576,10
CCn1nnnc1SCC(=O)c1ccc2c(c1)OCCO2,3,13,-56,-3,-3.9,3134,-2
COc1ccc(/C(N)=N/OC(=O)C2CCCCC2)cc1OC,0,-1,-43,6,3.6,4010,5
Cc1ccc(NC(=O)CN(C)S(=O)(=O)c2ccc(Br)s2)cc1F,.,.,-26,.,.,2211,7
CCN1C(=O)C2CCCCN2c2ccc(C(=O)NCCOC)cc21 (stereo not given),12,12,-89,-2,0.4,4001,7
CC(C)(CNC(=O)CCNC(=O)c1ccc(Br)cc1)N1CCOCC1,1,9,-15,0,3.1,5581,-1
Cc1cc(Br)ccc1SCC(=O)OCC(=O)NCc1ccc2c(c1)OCO2,5,6,-23,9,-1.5,2189,-5
CC1CC(=O)Nc2ccccc2N1C(=O)CN1CCN(c2ccccc2)CC1 (stereo not given),2,-7,1,4,-0.5,2135,4
CC[C@@]1(C(=O)OC)N[C@H](CN(C)C(=O)Nc2ccc(C(F)(F)F)cc2)[C@@H]2C(=O)N(C)C(=O)[C@@H]21,0,11,7,3,2.3,3632,.
CCOC(=O)Nc1ccc2c(COC(=O)CNS(=O)(=O)c3ccc(NC(C)=O)cc3)cc(=O)oc2c1,13,5,-36,5,0.8,2534,2
COc1ccc(NC(=O)Cn2c(=O)n(-c3ccc(CC(=O)NCc4ccco4)cc3)c(=O)c3ccccc32)cc1,2,3,4,5,2.8,4016,-10

New compounds follow.
molecule,Mtb hypoxia rep,Mtb hypoxia rep growth,PrP 5UTR inh,Sa ugtP lethal,Sa RN4220 lethal,Bead autofluor,BJeLR lethal
COC(=O)c1ccc2c(=O)n(Cc3ccco3)c(SCC(=O)Nc3ccccc3Cl)nc2c1,13,9,-2,-6,4.4,8062,-8
Cc1nc2ccc(NC(=O)C3CCCCC3)cc2s1,5,-3,3,1,1.5,4308,.
Cc1ccc(COc2ccsc2C(=O)NN)cc1,-4,5,-29,-5,0.9,4804,1
COc1cc(OC)c(OC)cc1/C=N/NC(=O)C[n+]1ccccc1,.,.,-6,.,.,2545,-1
Oc1ccc(C=NNc2ccc(C(F)(F)F)cn2)cc1O,4,-4,.,-19,21,.,.
COc1ccc(-c2nc(N)n[nH]2)cc1,1,7,-16,10,-3.4,2231,1
Fc1ccc(C(c2nnnn2Cc2cccs2)N2CCN(C3CCCCC3)CC2)cc1 (stereo not given),.,.,-7,0,-1.0,3833,-4
Cc1ccc(-c2nn(-c3ccccc3)cc2C=O)o1,-3,2,-71,3,-1.9,3920,0
COc1ccc(-c2csc(NC(=O)c3c(OC)cccc3OC)n2)cc1,-2,-6,-20,13,-5.0,3605,-6
Cc1ccsc1C(C(=O)NC1CCCCC1)N(C(=O)Cc1cccs1)C1CC1 (stereo not given),0,-2,2,-5,-6.3,11557,1
O=C(C1CCN(S(=O)(=O)c2ccccc2)CC1)N1CCN(Cc2ccccc2)CC1,15,0,4,15,2.1,5223,-3
Cc1cc(C(=O)c2ccccc2)cc(C)c1O,2,6,-9,7,8.1,3622,.
O=C1Nc2ccc(S(=O)(=O)NCC3CCCO3)c3cccc1c23 (stereo not given),8,12,-19,-2,-2.9,4712,.
NC1(C#Cc2ccc3oc(=O)c(-n4cc(C5(O)CCCCC5)nn4)cc3c2)CCCCC1,8,14,-15,-2,5.3,4356,.
CC(C)C(=O)Nc1ccc(S(=O)(=O)Nc2ccccn2)cc1,14,8,-20,-1,7.6,4132,-1
CC(C)Cn1c(N)c(C(=O)COC(=O)c2ccc(O)cc2O)c(=O)n(C)c1=O,2,3,-10,-3,2.3,.,1
CCOc1ccccc1NC(=O)CN(C)S(=O)(=O)c1cccc2nsnc12,0,6,-31,-12,0.2,8647,.
CCC(C)C1CNCCN1CC1(c2ccccc2)CC1 (stereo not given),5,2,.,-6,1.9,.,.
CCOc1cc(C2C(C(=O)N3CCCCC3)=C(C)NC3=C2C(=O)CCC3)cc(Br)c1O (stereo not given),1,0,-2,10,4.4,24537*,-5
Cc1ccc(C=NNC(=O)c2cc(C3CC3)nc3ccccc23)o1,2,1,.,7,1.2,.,.
Cc1cc(C(F)(F)F)nn1-c1nc(-c2ccco2)cc(C(F)(F)F)n1,-2,7,4,-3,0.8,10624,6
CCCCCCCCOC(=O)CCn1[nH]c(=O)c2ccccc2c1=O,8,3,6,1,3.8,2753,-2
CSc1ccccc1NC(=O)COC(=O)c1ccccc1O,9,0,-21,5,1.5,4379,2
N#CCCN(C(=O)c1ccco1)c1ccccc1,14,11,-9,6,4.1,3012,-4
O=C(N/N=C/c1ccc2ccccc2c1)c1ccc(COc2ccc3c(c2)CCC3)o1,.,.,-32,.,.,2305,1
Cc1cn(-c2ccc(Br)cc2)[nH]c1=O,8,1,-29,-1,5.2,9257,7
CSCCC(NC(=O)c1cccc([N+](=O)[O-])c1)C(=O)OCC(=O)N1CCCC1=O (stereo not given),-1,-5,-37,9,3.3,?,0
COc1ccc(C2CC(c3ccc(C)cc3)Nc3nc(N)nn32)cc1 (stereo not given),-1,5,-2,-5,-2.5,5345,3
Cc1ccc(OCC(=O)NS(=O)(=O)c2ccc(Cl)cc2)cc1,2,8,-35,-3,4.3,6306,7
Oc1c(N=Nc2ccccc2)sc2ccccc12,11,1,-72,5,4.2,4129,2
COC(=O)c1ccc(COc2ccccc2C=NNC(=O)c2cccnc2)cc1,13,7,.,14,21,.,.
Cc1c(-c2nnc(-c3ccc(C(F)(F)F)cc3)o2)cnn1-c1ccccc1,6,6,-39,-3,-13,2801,6
COc1ccc(CNC(=O)c2c(-c3cc(Cl)c(OC)c(Cl)c3)noc2C)cc1,.,.,-3,5,5.7,5424,-1
CC(=NNC(=O)CCC1C(=O)NN=C1C)c1ccc(Cl)cc1 (stereo not given),-7,-1,.,-2,1.9,.,.
O=C(CCS(=O)(=O)c1ccccc1)N1CCN(c2ccccc2F)CC1,7,10,-64,-1,2.1,5636,-4
O=C(CNC(=O)c1ccco1)NNC(=O)c1n[nH]c(=O)c2ccccc12,6,12,-13,4,3.1,4066,.
Cc1ccc2nc(-c3ccc(N4C(=O)CC(N5CCN(CCO)CC5)C4=O)cc3)sc2c1 (stereo not given),-3,-2,-20,-8,-7.2,2121,2
Cc1cc(C)cc(NC(=O)CCC(=O)N2CCSc3ccccc32)c1,.,.,-12,0,2.7,5745,-2
CC(C)(C)c1cc(C(=O)NN=Cc2ccc(O)cc2)n(-c2ccccc2)n1,-2,1,.,10,5.9,.,.
CCCCn1c2c(c(=N)c3ccccc31)CCC2,2,3,-15,-3,1.8,.,9
CCN(CC)CCn1c2c(c(SCC(=O)Nc3ccc(C(C)C)cc3)nc1=O)CCC2,5,5,-18,3,2.4,.,8
Cc1ccc(S(=O)(=O)N2CCC(=O)N(C(COCc3ccccc3)C(C)C)CC2)cc1 (stereo not given),9,7,-12,3,8.8,4350,8
Cc1oc(-c2ccc(Cl)cc2)nc1CN1CCC(C(=O)NCCCN2CCOCC2)CC1,-1,2,-7,-4,-1.6,9735,4
CCN(CC(=O)NCc1cccs1)C(=O)Cc1ccc(C)c(C)c1,13,4,-17,8,5.1,.,.
Clc1cccc(C=NN2CCN(Cc3ccccc3)CC2)c1,8,7,.,15,2.5,.,.

Entries of single compounds, looked up by structure. Order of screens: Mtb hypoxia rep	Mtb hypoxia rep growth	PrP 5UTR inh	Sa ugtP lethal	Sa RN4220 lethal	Bead autofluor	BJeLR lethal
Clc1cccc(C=NN2CCN(Cc3ccccc3)CC2)c1 is listed as 8	7	.	15	2.5	.	.
CCCCn1c2c(c(=N)c3ccccc31)CCC2 is listed as 2	3	-15	-3	1.8	.	9

The results go on:
molecule,Mtb hypoxia rep,Mtb hypoxia rep growth,PrP 5UTR inh,Sa ugtP lethal,Sa RN4220 lethal,Bead autofluor,BJeLR lethal
CC(C)(C)C1CCC(OCC(O)CN2CCN(Cc3ccccc3)CC2)CC1 (stereo not given),11,3,-13,-5,3.4,2571,1
CC(CCN1C(Nc2ccccc2)=NCC1C)c1ccccc1 (stereo not given),6,5,.,-13,3.8,.,.
O=C(Nc1nnc(-c2ccncc2)o1)C1CCCCC1,-2,12,0,-2,2.8,2192,-10
COC(=O)COc1ccc(-c2nn(C)c(=O)c3ccccc23)cc1,.,.,-21,-2,1.5,4665,-3
COc1ccc(COC(=O)CCN=C2NS(=O)(=O)c3ccccc32)cc1F,-10,3,-22,4,2.7,5621,-6
COC(=O)Cc1cc(=O)n(-c2nc3ccccc3[nH]2)[nH]1,-3,0,-2,-14,15,15981,6
CC(=O)C1C(c2ccccc2OC(F)F)NC(=O)NC1(O)C(F)(F)F (stereo not given),0,8,-2,5,7.6,2026,2
CCN(C(=O)C(C)Sc1nnc(-c2ccncc2)n1C)C1CCCCC1 (stereo not given),6,9,-23,4,8.6,5872,.
CCCCOc1ccccc1/C=N/NC(=O)CC#N,.,.,-13,.,.,5246,7
